Vaccinia inh: blocks a specific stage of Vaccinia orthopoxvirus infection; activity change (mCherry), % (test concentration not listed); 89,000 tested, 0.01% active; Vaccinia-infected cells, mCherry/Venus stage reporter fluorescence; hits give low values; some inactives read as strong as hits;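 active = mCherry past -33% and 40 or more points under the early reporter, replicates agreeing; inconclusive = past -33% without that gap or agreement; tested in A549 cells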;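 note: scaled between vehicle wells and reference inhibitor wells; 23 nL library stock went into each well; one replicate is shown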
Vaccinia inh Venus: further read-out of Vaccinia inh, marked with its call; activity change (Venus), %; measured here: Venus reporter, other viral stage;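 negative = less Venus signal; first of two replicates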
* = called active by the depositor. A portion of the library; rates above refer to the full screens.

`C[C@@H]1CN([C@@H](C)CO)C(=O)c2cc(-c3ccncc3)cnc2O[C@@H]1CN(C)C(=O)NC1CCCC1` gave Vaccinia inh 19 and Vaccinia inh Venus 12.
`Cc1cccc(S(=O)(=O)N2C[C@H]3[C@@H](c4ccccc42)[C@H](CO)N3C(=O)c2ccccc2)c1` gave Vaccinia inh -12 and Vaccinia inh Venus 0.
Screening CNC[C@H]1Oc2c(NC(=O)Nc3c(C)noc3C)cccc2C(=O)N([C@@H](C)CO)C[C@H]1C returned Vaccinia inh 11 and Vaccinia inh Venus 3.
For Cc1ccc(S(=O)(=O)N[C@H]2CC[C@@H](CCn3cc(C4(O)CCCC4)nn3)O[C@H]2CO)cc1 the results were Vaccinia inh -11 and Vaccinia inh Venus 1.
Screening C[C@@H]1CN([C@H](C)CO)C(=O)c2c(c3ccccc3n2C)-c2ccccc2CO[C@@H]1CN(C)S(=O)(=O)c1ccccc1 returned Vaccinia inh inconclusive.
`C[C@H](CO)N1C[C@H](C)[C@H](CN(C)Cc2ccc(Cl)c(Cl)c2)Oc2ccc(NC(=O)CCCN(C)C)cc2C1=O` gave Vaccinia inh -14 and Vaccinia inh Venus -5.
Screening C[C@@H]1CN([C@@H](C)CO)C(=O)c2cc(C#CCN(C)C)cnc2O[C@H]1CN(C)C returned Vaccinia inh 27 and Vaccinia inh Venus 15.
`O=C(c1cccnc1)N1C[C@@H]2[C@H](c3ccccc31)[C@@H](CO)N2CC1CCCC1` gave Vaccinia inh 1 and Vaccinia inh Venus 2.
CO[C@@H]1CN(C)C(=O)c2ccc(NC(=O)C3CCC3)cc2OC[C@@H](C)N(C)C[C@H]1C was read as Vaccinia inh 9 and Vaccinia inh Venus 6.
Screening CNC(=O)C[C@@H]1CC[C@@H]2[C@H](COc3ccc(NC(=O)c4ccccc4OC)cc3C(=O)N2C)O1 returned Vaccinia inh 4 and Vaccinia inh Venus -4.
COc1ccc(NC(=O)Nc2ccc3c(c2)C(=O)N([C@H](C)CO)C[C@H](C)[C@@H](CN(C)C(=O)Nc2ccc(OC)cc2)O3)cc1 was read as Vaccinia inh 16 and Vaccinia inh Venus 16.
For CC(C)NC(=O)Nc1ccc2c(c1)CC(=O)N([C@H](C)CO)C[C@H](C)[C@@H](CN(C)S(=O)(=O)c1cn(C)cn1)O2 the results were Vaccinia inh 15 and Vaccinia inh Venus 13.
Screening C[C@@H]1CN([C@H](C)CO)C(=O)Cc2cc(NC(=O)Nc3ccc(C(F)(F)F)cc3)ccc2O[C@@H]1CN(C)Cc1ccncc1 returned Vaccinia inh -30 and Vaccinia inh Venus -25.
C[C@H]1CN([C@@H](C)CO)S(=O)(=O)c2ccc(C#Cc3ccccc3)cc2O[C@@H]1CN(C)C was read as Vaccinia inh -32 and Vaccinia inh Venus -26.
Screening C[C@@H]1CN([C@H](C)CO)C(=O)c2cc(NC(=O)Nc3ccc(C(F)(F)F)cc3)ccc2O[C@@H]1CN(C)S(C)(=O)=O returned Vaccinia inh 6 and Vaccinia inh Venus 2.
`C[C@H](CO)N1C[C@H](C)[C@@H](CN(C)C)Oc2ccc(NS(=O)(=O)c3cn(C)cn3)cc2CC1=O` gave Vaccinia inh 11 and Vaccinia inh Venus 10.
`COCCNC(=O)C[C@@H]1C[C@@H]2c3cc(NC(=O)CC4CC4)ccc3O[C@@H]2[C@@H](CO)O1` gave Vaccinia inh 3 and Vaccinia inh Venus 0.
C[C@H](CO)N1C[C@H](C)[C@H](CN(C)Cc2ccc(-c3ccccc3)cc2)Oc2c(NS(=O)(=O)c3cccs3)cccc2C1=O was read as Vaccinia inh -24 and Vaccinia inh Venus -25.
For CN(C)c1ccc2c(c1)[C@@H]1C[C@@H](CC(=O)N3CCc4ccccc4C3)O[C@H](CO)[C@@H]1O2 the results were Vaccinia inh 0 and Vaccinia inh Venus 5.
CCCc1cn([C@H]2C[C@@H]3O[C@H](CO)CC[C@@H]3O[C@@H]2CCc2ccc(-c3cccc(OC)c3)cc2)nn1 was read as Vaccinia inh 11 and Vaccinia inh Venus 1.
Screening C[C@@H]1CN([C@H](C)CO)C(=O)c2cc(-c3ccc(F)cc3)cnc2O[C@@H]1CN(C)Cc1ccccn1 returned Vaccinia inh -7 and Vaccinia inh Venus 1.
Cc1ccccc1-c1ccc([C@@H]2[C@@H](CO)N3CCCCN(C(=O)NC4CCCC4)C[C@H]23)cc1 was read as Vaccinia inh inconclusive.
`C[C@H](O)C#Cc1ccc2c(c1)O[C@@H](CN(C)C(=O)c1ccncc1)[C@@H](C)CN([C@H](C)CO)S2(=O)=O` gave Vaccinia inh -4 and Vaccinia inh Venus -8.
`C[C@@H]1CN([C@@H](C)CO)C(=O)c2cc(C#CC3(O)CCCC3)cnc2O[C@H]1CN(C)C(=O)C1CCCCC1` gave Vaccinia inh 7 and Vaccinia inh Venus -3.
Screening CS(=O)(=O)N1CC2(C1)[C@H](c1ccccc1)[C@@H](CO)N2CCC(F)(F)F returned Vaccinia inh 7 and Vaccinia inh Venus 6.
COC(=O)C[C@@H]1CC[C@@H]2[C@H](COc3ccc(NC(=O)c4cc(C)on4)cc3C(=O)N2C)O1 was read as Vaccinia inh -25 and Vaccinia inh Venus -27.
Screening C[C@H]1CCCCO[C@H](CN(C)S(=O)(=O)c2cn(C)cn2)[C@@H](C)CN([C@@H](C)CO)C(=O)c2cc(NC(=O)NC3CCCCC3)ccc2O1 returned Vaccinia inh 15 and Vaccinia inh Venus 1.
`CO[C@@H]1CN(C)C(=O)c2ccc(NC(=O)c3ccccc3F)cc2OC[C@H](C)N(CC2CCOCC2)C[C@H]1C` gave Vaccinia inh 6 and Vaccinia inh Venus 6.
For COc1ccc(NC(=O)Nc2cccc3c2O[C@H](CN(C)C(=O)NC(C)C)[C@H](C)CN([C@H](C)CO)C3=O)cc1 the results were Vaccinia inh 0 and Vaccinia inh Venus 3.
`C[C@@H]1CN([C@@H](C)CO)C(=O)c2cccc(N(C)C)c2O[C@@H]1CN(C)Cc1ccc(-c2ccccc2)cc1` gave Vaccinia inh -7 and Vaccinia inh Venus -1.
COCc1cn(CC[C@H]2CC[C@@H](NC(=O)c3ccncc3)[C@@H](CO)O2)nn1 was read as Vaccinia inh -7 and Vaccinia inh Venus -3.
For CCC(=O)N(C)C[C@@H]1Oc2cc(C#CC3CC3)ccc2S(=O)(=O)N([C@H](C)CO)C[C@H]1C the results were Vaccinia inh 17 and Vaccinia inh Venus -1.
`C[C@H]1CN([C@@H](C)CO)C(=O)Cc2cc(NC(=O)CCCCCC(=O)Nc3ccccc3N)ccc2O[C@@H]1CN(C)S(=O)(=O)c1cn(C)cn1` gave Vaccinia inh 12 and Vaccinia inh Venus 19.
Screening N#C[C@H]1[C@@H](c2ccc(/C=C/c3ccccc3)cc2)[C@@H](CO)N1C(=O)C1CCCC1 returned Vaccinia inh 17 and Vaccinia inh Venus 15.
For C[C@H](CO)N1C[C@H](C)[C@H](CN(C)C(=O)C2CCCCC2)Oc2cc(C#C[C@@H](C)O)ccc2S1(=O)=O the results were Vaccinia inh 10 and Vaccinia inh Venus 10.
Screening COc1ccccc1CNC(=O)C[C@@H]1C[C@@H]2c3cc(NS(C)(=O)=O)ccc3O[C@@H]2[C@H](CO)O1 returned Vaccinia inh -2 and Vaccinia inh Venus 0.
C[C@@H]1CN([C@H](C)CO)C(=O)CCCn2cc(nn2)CO[C@@H]1CN(C)S(=O)(=O)c1ccc(F)cc1 was read as Vaccinia inh -1 and Vaccinia inh Venus -2.
`COc1ccccc1NC(=O)N[C@H]1CC[C@@H](CCn2cc(-c3ccccc3OC)nn2)O[C@@H]1CO` gave Vaccinia inh -22 and Vaccinia inh Venus -14.
For C[C@@H]1CCCCO[C@@H](CN(C)C(=O)Nc2ccc3c(c2)OCO3)[C@@H](C)CN([C@H](C)CO)C(=O)c2cc(NC(=O)CCCN(C)C)ccc2O1 the results were Vaccinia inh -6 and Vaccinia inh Venus -16.
Screening C[C@@H]1CN([C@@H](C)CO)C(=O)c2cc(C#C[C@@H](C)O)cnc2O[C@@H]1CN(C)C(=O)Nc1ccc(F)cc1 returned Vaccinia inh 26 and Vaccinia inh Venus 25.
COc1ccccc1-c1ccc2c(c1)O[C@H](CN(C)S(=O)(=O)c1ccc(F)cc1)[C@@H](C)CN([C@@H](C)CO)S2(=O)=O was read as Vaccinia inh inconclusive.
C[C@@H]1CN([C@H](C)CO)C(=O)c2cc(NC(=O)Nc3ccc(C(F)(F)F)cc3)ccc2O[C@H]1CN(C)Cc1ccc(C(F)(F)F)cc1 was read as Vaccinia inh -14 and Vaccinia inh Venus -6.
COCc1cn(CC[C@H]2CC[C@H](NC(=O)Nc3ccccc3)[C@@H](CO)O2)nn1 was read as Vaccinia inh 15 and Vaccinia inh Venus 16.
Screening CCCNC(=O)N1C[C@@H](C)[C@H](OC)CN(C)C(=O)c2ccc(NS(C)(=O)=O)cc2OC[C@@H]1C returned Vaccinia inh -4 and Vaccinia inh Venus 0.
Screening CN(C)C(=O)C[C@@H]1C[C@H]2c3cc(NC(=O)CC4CC4)ccc3O[C@H]2[C@H](CO)O1 returned Vaccinia inh -12 and Vaccinia inh Venus -9.
Screening C[C@H](CO)N1C[C@H](C)[C@@H](CN(C)C(=O)NC2CCCCC2)Oc2ccc(NS(=O)(=O)c3cccs3)cc2CC1=O returned Vaccinia inh 11 and Vaccinia inh Venus 3.
`C[C@H]1CCCCO[C@H](CN(C)CC2CCCCC2)[C@@H](C)CN([C@@H](C)CO)C(=O)c2cc(NC(=O)Cc3ccccc3)ccc2O1` gave Vaccinia inh inconclusive.
O=C(CCN1CCCCC1)NCC[C@@H]1CC[C@@H](NC(=O)C2CCC2)[C@@H](CO)O1 was read as Vaccinia inh 10 and Vaccinia inh Venus 11.
Screening C/C=C/c1cnc2c(c1)C(=O)N([C@@H](C)CO)C[C@@H](C)[C@H](CN(C)C(=O)Cc1ccccc1)O2 returned Vaccinia inh 25 and Vaccinia inh Venus 3.
For CO[C@@H]1CN(C)C(=O)c2ccc(NS(=O)(=O)c3ccccc3C)cc2OC[C@@H](C)NC[C@@H]1C the results were Vaccinia inh 3 and Vaccinia inh Venus 6.
C[C@@H]1CN([C@@H](C)CO)C(=O)c2cc(NC(=O)C3CCCCC3)ccc2O[C@@H]1CN(C)S(=O)(=O)c1ccccc1 was read as Vaccinia inh -19 and Vaccinia inh Venus -17.
Screening O=C(C[C@@H]1C[C@H]2c3cc(NC(=O)Nc4ccccc4)ccc3O[C@H]2[C@@H](CO)O1)NCC(F)(F)F returned Vaccinia inh 19 and Vaccinia inh Venus 15.
For CN(C)C(=O)c1cccc(-c2ccccc2[C@@H]2[C@@H](C#N)N(C(=O)C3CC3)[C@@H]2CO)c1 the results were Vaccinia inh 9 and Vaccinia inh Venus 7.
`CC(C)NC(=O)N1CCCCN2[C@H](CO)[C@@H](c3ccc(C#Cc4ccccc4F)cc3)[C@@H]2C1` gave Vaccinia inh -33 and Vaccinia inh Venus -40.
For CC(C)C#Cc1ccc2c(c1)O[C@@H](CN(C)C(=O)c1ccccc1)[C@H](C)CN([C@H](C)CO)S2(=O)=O the results were Vaccinia inh inconclusive.
`O=C(C[C@@H]1CC[C@H](NC(=O)Nc2ccc(C(F)(F)F)cc2)[C@@H](CO)O1)NCCN1CCCC1` gave Vaccinia inh -20 and Vaccinia inh Venus -5.
Screening O=C(C[C@@H]1C[C@@H]2c3cc(NC(=O)c4cccnc4)ccc3O[C@@H]2[C@@H](CO)O1)NCc1ccc(Oc2ccccc2)cc1 returned Vaccinia inh -29 and Vaccinia inh Venus -19.
`CCCNC(=O)C[C@H]1C[C@@H]2c3cc(N(C)C)ccc3O[C@@H]2[C@@H](CO)O1` gave Vaccinia inh 11 and Vaccinia inh Venus 20.
`O=C(CC(F)(F)F)N1C[C@@H]2[C@H](c3ccccc31)[C@H](CO)N2C(=O)C1CCCC1` gave Vaccinia inh 1 and Vaccinia inh Venus 3.
Screening O=C(C1CCCCC1)N1CC(=O)N2[C@H](CO)[C@@H](c3ccc(-c4cccnc4)cc3)[C@H]2C1 returned Vaccinia inh -33 and Vaccinia inh Venus -27.
CCC(=O)Nc1ccc2c(c1)C(=O)N(C)C[C@H](OC)[C@H](C)CN(C(=O)c1ccc(F)cc1)[C@@H](C)CO2 was read as Vaccinia inh -8 and Vaccinia inh Venus -5.
For C[C@H](CO)N1C[C@H](C)[C@H](CN(C)CC2CCCCC2)OCCCC[C@H](C)Oc2ccc(NC(=O)Nc3cccc4ccccc34)cc2C1=O the results were Vaccinia inh inconclusive.

Grouped by structure: those above with a CF3 group.
Screening C[C@@H]1CN([C@H](C)CO)C(=O)Cc2cc(NC(=O)Nc3ccc(C(F)(F)F)cc3)ccc2O[C@@H]1CN(C)Cc1ccncc1 returned Vaccinia inh -30 and Vaccinia inh Venus -25.
Screening C[C@@H]1CN([C@H](C)CO)C(=O)c2cc(NC(=O)Nc3ccc(C(F)(F)F)cc3)ccc2O[C@@H]1CN(C)S(C)(=O)=O returned Vaccinia inh 6 and Vaccinia inh Venus 2.
Screening CS(=O)(=O)N1CC2(C1)[C@H](c1ccccc1)[C@@H](CO)N2CCC(F)(F)F returned Vaccinia inh 7 and Vaccinia inh Venus 6.
C[C@@H]1CN([C@H](C)CO)C(=O)c2cc(NC(=O)Nc3ccc(C(F)(F)F)cc3)ccc2O[C@H]1CN(C)Cc1ccc(C(F)(F)F)cc1 was read as Vaccinia inh -14 and Vaccinia inh Venus -6.
Screening O=C(C[C@@H]1C[C@H]2c3cc(NC(=O)Nc4ccccc4)ccc3O[C@H]2[C@@H](CO)O1)NCC(F)(F)F returned Vaccinia inh 19 and Vaccinia inh Venus 15.
`O=C(C[C@@H]1CC[C@H](NC(=O)Nc2ccc(C(F)(F)F)cc2)[C@@H](CO)O1)NCCN1CCCC1` gave Vaccinia inh -20 and Vaccinia inh Venus -5.
`O=C(CC(F)(F)F)N1C[C@@H]2[C@H](c3ccccc31)[C@H](CO)N2C(=O)C1CCCC1` gave Vaccinia inh 1 and Vaccinia inh Venus 3.

Screens from PubChem.
